Screening results from PubChem.
B2AR ag: agonists of human beta-2 adrenergic receptor inducing internalization | P07550 | Am2.2-beta2AR cells, FAP receptor internalization, flow cytometry; reference of the scale not given here | response, % (no concentration beside the values) | actives 0.43% (n = 340,000);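 active means response above a set limit, near 3 SD of response in nonfluorescent compounds, cut at about 42% in these data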;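 further: stock transfer was 100 nL into about 11 µL; a reference agonist was the positive control; negative values mostly stem from fluorescent compounds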
T cruzi repl: blocks replication of Trypanosoma cruzi; T. cruzi beta-gal in NIH3T3, luminescence, 90 h; inhibition, % (test concentration not listed); actives 1.4% (n = 300,000);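 active means mean inhibition across valid replicates above about 55%, limit read from the data; inconclusive means mean below that limit but half or more replicates reach it; inactive means mean below it, under half of replicates reach it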;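 further: signal also drops with host cell toxicity which is not excluded here; 0% = plate median of DMSO wells and 100% = zero luminescence signal; higher percent means less beta-gal luminescence so fewer parasites; stock transfer was 50 nL into about 50 µL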
Calb FLC: C. albicans growth modulation with fluconazole. C. albicans CaCi-2 (fluconazole-resistant clinical isolate) + fluconazole, Alamar Blue growth, 48 h. growth inhibition, % (test concentration not listed). actives 0.57% (n = 300,000);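 active means most replicates above 75%; inconclusive means exactly half above 75%; inactive means most below 75%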;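 further: all wells also contain fluconazole at 8 µg/ml as a sub-toxic cotreatment; 0% = median of DMSO wells and 100% = median of geldanamycin control wells; wells of about 8 µL received 7.5 nL stock; the first replicate is given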
LANA-H2A inh: blocks KSHV LANA binding to histone H2A/H2B. Q9QR71. cell-free LANA-H2A/H2B peptide, fluorescence polarization. inhibition, % (concentration not given with the values). actives 0.6% (n = 320,000). AID 2629; in the data active means inhibition mostly above about 10%, no sharp cut-off; inactive means mostly below about 6.7%;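 further: stock transfer was 7.5 nL into about 10 µL; 0% = median of vehicle wells and 100% = median of positive control wells; one replicate is shown; the record names a cut of 25% in any replicate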
Target sequence (Q9QR71 whole entry, looked up): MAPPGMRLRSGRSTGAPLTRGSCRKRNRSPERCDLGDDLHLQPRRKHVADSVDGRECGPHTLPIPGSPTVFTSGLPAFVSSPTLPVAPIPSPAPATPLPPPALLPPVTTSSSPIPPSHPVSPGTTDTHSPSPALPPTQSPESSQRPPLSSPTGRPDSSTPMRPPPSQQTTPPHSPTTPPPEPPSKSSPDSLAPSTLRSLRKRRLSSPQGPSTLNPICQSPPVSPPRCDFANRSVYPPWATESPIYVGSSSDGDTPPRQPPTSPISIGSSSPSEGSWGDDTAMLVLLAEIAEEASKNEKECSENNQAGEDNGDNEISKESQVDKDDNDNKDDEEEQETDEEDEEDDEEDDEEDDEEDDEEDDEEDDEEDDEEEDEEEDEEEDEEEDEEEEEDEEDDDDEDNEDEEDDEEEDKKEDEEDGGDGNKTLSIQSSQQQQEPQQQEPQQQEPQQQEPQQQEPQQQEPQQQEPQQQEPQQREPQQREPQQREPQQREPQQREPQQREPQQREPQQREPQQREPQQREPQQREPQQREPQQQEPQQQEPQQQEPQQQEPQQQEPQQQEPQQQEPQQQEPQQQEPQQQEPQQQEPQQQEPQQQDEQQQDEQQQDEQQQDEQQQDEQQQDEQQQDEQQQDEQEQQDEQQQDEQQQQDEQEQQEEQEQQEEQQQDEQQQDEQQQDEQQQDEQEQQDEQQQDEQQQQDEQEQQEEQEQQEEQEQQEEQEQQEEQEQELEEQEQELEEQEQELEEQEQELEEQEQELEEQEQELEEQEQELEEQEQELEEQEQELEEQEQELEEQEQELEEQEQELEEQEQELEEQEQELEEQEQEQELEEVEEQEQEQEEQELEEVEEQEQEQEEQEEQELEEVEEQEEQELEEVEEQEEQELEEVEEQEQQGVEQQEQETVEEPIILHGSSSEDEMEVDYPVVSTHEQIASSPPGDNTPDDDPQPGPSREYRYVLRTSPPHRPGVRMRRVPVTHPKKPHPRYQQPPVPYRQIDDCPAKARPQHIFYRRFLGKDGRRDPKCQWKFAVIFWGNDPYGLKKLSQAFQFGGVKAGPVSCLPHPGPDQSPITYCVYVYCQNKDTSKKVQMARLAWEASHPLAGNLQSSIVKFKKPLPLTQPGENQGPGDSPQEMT
ALR H2O2 inh: inhibitors of human sulfhydryl oxidase ALR; P55789; purified ALR, DTT oxidation, H2O2 HRP-luminol luminescence; inhibition, % (no concentration beside the values); actives 3.8% (n = 290,000); AID 485317;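 active means mean and each replicate at 75% or more; inconclusive means only one of the two met; inactive means neither met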;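 further: stock transfer was 7.5 nL into about 7.5 µL; 0% = neutral wells and 100% = wells with inactivated enzyme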
Beta cell apopt: blocks beta cell apoptosis. AID 435005. INS-1E cytokine-induced death, ATP luminescence, 48 h; percent of positive-control rescue, neutral wells zero. protection from apoptosis, % (no concentration beside the values). actives 0.8% (n = 300,000);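 active means all replicates at 75% or more, or half of them and the mean; inconclusive means half reach 75% but not the mean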;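 further: 0% = cytokine-treated negative control wells and 100% = positive control rescue; higher means more ATP so stronger rescue from cytokine killing; wells of about 40 µL received 100 nL stock; the first replicate is given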
rRNA inh HTS: inhibitors of bacterial rRNA selective over humanized ribosomes; GFP signal change (wild-type ribosome), % (concentration not given with the values); AID 720706; E. coli WT GFP vs humanized-ribosome RFP mutants, fluorescence, 24 h; hits give low values; DMSO median 0, no signal -100; actives 1.6% (n = 350,000);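 active means significant combined selectivity score with lowered wild-type GFP, culture density cut under 30%, mutant RFP and density less affected; inactive means any of these conditions unmet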; further: one replicate is shown; some compounds called inactive have numbers as strong as hits
A1 inh: inhibitors of the anti-apoptotic protein A1, read as caspase activation | MEF A1-2A-BIM cells, Caspase-Glo 3/7 luminescence, 3 h; percent of clofoctol response, vehicle zero | caspase activation, % (concentration not given with the values) | actives 0.066% (n = 330,000);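 active means over half of replicate activation scores above 10%, or exactly half above 10 with the replicate mean above 10; inconclusive means replicate mean below 10 yet half the replicates above 10; inactive means over half of replicates below 10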;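 further: wells of about 30 µL received 50 nL stock; many hits fall short of the cut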
rRNA inh HTS OD600: recorded beside rRNA inh HTS, whose call it bears; OD600 change, %; measured here: OD600 growth;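 optical density of the mix in the first replicate; 0 = DMSO median and -100 = no signal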
rRNA inh HTS RFP: second read-out of rRNA inh HTS, no call of its own (marks repeat the call); RFP signal change, %; measured here: RFP humanized mutant strains;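 first replicate; 0 = DMSO median and -100 = no signal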
Active calls of the source: *; ? = inconclusive; . = not tested or not shown. Some of the compounds tested (hit frequency here may not be typical).

SMILES	B2AR ag	T cruzi repl	Calb FLC	LANA-H2A inh	ALR H2O2 inh	Beta cell apopt	rRNA inh HTS	rRNA inh HTS OD600	rRNA inh HTS RFP	A1 inh
Cc1nc2c([nH]1)C1(CCN(Cc3ccccc3)CC1)C(C#N)=C(N)O2	1	.	.	8.7	35	.	.	.	.	1.2
CCC(=O)Nc1ccc(F)c(Cl)c1	-4	-12	4	-1.7	0	-1	.	.	.	-0.1
COc1ccc(C(=O)CSc2nnc(-c3ccco3)c(-c3ccco3)n2)cc1	-4	15	-9	.	.	.	-17	-14	0.0	.
CCc1cc(C(=O)N2CCCC(CNS(=O)(=O)c3cccs3)C2)n(C)n1 (configuration not stated)	6	5	20	6.8	-2	2	20	11	3.1	0.1
Cc1ccc(S(=O)(=O)NCCOc2cc(C)ccc2C)cc1	21	-7	-8	-1.4	-3	-3	-52	-80	-14	-0.4
CN(CC(=O)NCC1CCCO1)S(=O)(=O)c1cc(Cl)ccc1Cl (configuration not stated)	-6	-14	-2	-4.2	-4	-5	.	.	.	-2.2
O=C(/C(Br)=C/Nc1cc(Cl)ccc1Cl)C(F)(F)F	4	-22	-18	-1.4	15	2	.	.	.	-0.5
CC1CCCCC1NC(=O)C1CCN(S(=O)(=O)c2cccc3nonc23)CC1 (configuration not stated)	0	-16	6	-1.6	3	-2	6	9	-2.4	-0.2
O=C(NCC1CCCO1)c1cc([N+](=O)[O-])ccc1Cl (configuration not stated)	0	9	-6	-1.4	95*	.	20	15	0.6	-1.1
CCOc1cc(C)c(Cl)cc1S(=O)(=O)N(CC)CC	-7	-11	6	-0.8	1	-3	.	.	.	-0.1
COc1ccc(C(=O)CN2C3=NCCCN3c3ccccc32)cc1OC	9	-9	-55	-1.1	-6	2	.	.	.	0.4
Cc1nc2ccccc2c(=O)n1NC(=O)Nc1ccccc1	3	3	1	-1.8	0	1	.	.	.	0.6
O=C(NCc1ccco1)c1ccc2c(=O)n(CC3CCCO3)c(=S)[nH]c2c1 (configuration not stated)	17	-11	-3	-11	-10	-3	.	.	.	0.1
Cn1nc(-c2ccccc2)c(-c2nc(-c3ccc(Cl)cc3)no2)c1Cl	2	8	4	1.5	-8	2	.	.	.	0.9
CC(C)OP(=O)(OC(C)C)C(Nc1ccccc1)c1cccc([N+](=O)[O-])c1 (configuration not stated)	6	9	35	-1.7	-1	-4	12	8	1.5	0.1
O=C(CN1CCN(C(=O)c2cccs2)CC1)NC1CCCCC1	0	-6	6	2.3	-11	.	.	.	.	-1.2
CC(C)c1cc(NCC2CCCO2)n2c(nc3ccccc32)c1C#N (configuration not stated)	-20	37	18	-4.6	.	5	.	.	.	-0.5
COC1(OC)C(/C=C/c2ccc(Cl)cc2)C(C#N)(C#N)C1(OC)OC (configuration not stated)	-2	-6	20	-0.1	72	-17	.	.	.	0.1
COc1ccc(SCCN2CC[C@@H](C(C)(C)C)CCC2=O)cc1	-8	.	.	-4.8	2	-1	-35	-61	1.5	1.1
CC(C(=O)N1CCOCCOCCOCC1)N1C(=O)c2ccccc2C1=O (configuration not stated)	-5	-13	-6	3.6	.	-2	1	2	-2.9	-0.2
CCCCC(=O)Nc1cccc2c1C(=O)N(c1ccccc1)C2=O	-11	-2	3	1.5	.	6	.	.	.	0.3
O=C(O)c1ccc(NS(=O)(=O)c2ccc3nnn(O)c3c2)cc1	4	-9	17	-2.8	-16	4	.	.	.	-0.2
CCOC(=O)Cn1cc(C(=O)OC)c2ccccc21	1	-10	-9	-3.4	-4	-3	.	.	.	-0.8
CC(C)c1ccc(/C=C/C(=O)N2CCCCCC2)cc1	-3	12	48	-3.1	-13	-1	-26*	-19*	-7.4*	-0.4
O=C(Nc1ccccc1)c1cc(S(=O)(=O)Nc2cccnc2)ccc1Cl	2	-1	3	1.9	-5	.	4	3	1.7	1.3
Cc1ccc(N(CC(=O)N2CCN(c3ccc(F)cc3)CC2)S(=O)(=O)c2c(C)nn(C)c2C)cc1	16	1	13	-0.3	21	0	2	6	-2.9	.
CCOC(=O)c1nn(-c2ccc(C)cc2)c(=O)cc1OCC(=O)Nc1cccc(OC)c1	1	-2	-12	.	.	-2	11	4	0.5	-0.2
Cc1ccc(NC(=S)NCc2ccc3c(c2)OCO3)cc1C	1	-3	0	4.3	5	-10	-35	-60	-17	-0.8
Cc1ccc2oc(=O)n(CCCOc3ccccc3)c2c1	-4	1	6	-1.7	.	-1	.	.	.	0.3
C=CCCCCCCCCC(=O)Nc1ncccn1	4	-3	17	-0.7	2	2	-14	-22	-9.3	0.0

A draw from above in order of number of heavy atoms, rising.
SMILES	B2AR ag	T cruzi repl	Calb FLC	LANA-H2A inh	ALR H2O2 inh	Beta cell apopt	rRNA inh HTS	rRNA inh HTS OD600	rRNA inh HTS RFP	A1 inh
Cc1ccc(NC(=S)NCc2ccc3c(c2)OCO3)cc1C	1	-3	0	4.3	5	-10	-35	-60	-17	-0.8
CC(C)c1cc(NCC2CCCO2)n2c(nc3ccccc32)c1C#N (configuration not stated)	-20	37	18	-4.6	.	5	.	.	.	-0.5
CCOC(=O)c1nn(-c2ccc(C)cc2)c(=O)cc1OCC(=O)Nc1cccc(OC)c1	1	-2	-12	.	.	-2	11	4	0.5	-0.2

Going on with the list:
SMILES	B2AR ag	T cruzi repl	Calb FLC	LANA-H2A inh	ALR H2O2 inh	Beta cell apopt	rRNA inh HTS	rRNA inh HTS OD600	rRNA inh HTS RFP	A1 inh
CCc1nnc(NC(=O)CSc2ccc(-c3ccc(C)cc3)nn2)s1	0	26	2	-2.7	-1	-4	2	4	2.9	-3.2
CS(=O)(=O)N1CCCC(C(=O)N2CCOCC2)C1 (configuration not stated)	-2	-5	24	2.8	-1	-8	8	3	-2.8	-0.3
O=[N+]([O-])c1ccc(S(=O)(=O)Nc2ccc(-c3ccc(N4CCCC4)nn3)cc2)cc1	-1	55*	36	.	.	7	-6	-10	-3.5	0.3
C=CCOc1c(Br)cc(C2C3=C(CCCC3=O)N(C)C3=C2C(=O)CCC3)cc1OCC	13	-3	-10	2.3	-13	-2	-34*	-22*	-1.9*	0.0
CCn1ncc(/C=N/N=C2\CCC3C4CCc5cc(O)ccc5C4CCC23C)c1C (configuration not stated)	15	-16	?	2.0	0	.	.	.	.	0.3
CCSc1ncc(C#N)c(N)n1	-8	4	-1	-1.7	-4	.	.	.	.	0.7
Cc1ccc(CC2CC(=O)N(CCc3ccc4c(c3)OCO4)C2=O)cc1 (configuration not stated)	-3	30	-30	-10	0	-6	.	.	.	2.1
CC1CCCN(C(=O)CCNS(=O)(=O)c2ccc(Br)cc2)C1 (configuration not stated)	2	6	-7	3.8	-9	0	5	9	-2.4	-0.1
CC(=O)c1ccc(N2CCN(S(=O)(=O)c3csc(C(N)=O)c3)CC2)cc1	-1	-6	-7	-2.5	-6	7	7	9	15	0.1
CCN(CC)C(=O)C(=O)c1cn(CC(=O)NCc2ccc3c(c2)OCO3)c2ccccc12	4	-5	12	.	-5	-5	10	-1	3.7	-0.9
COc1ccc(NC(=O)Cn2ccc3c(OC)cccc3c2=O)cc1	-6	-9	5	-1.8	4	1	5	-1	-11	0.5
CC(C)(C)c1ccc(C(=O)Nn2cnnc2)cc1	10	-5	0	-26	11	10	1	16	6.6	0.1
N#CCCN1CCN(S(=O)(=O)c2ccc(S(=O)(=O)N3CCOCC3)cc2)CC1	6	0	-4	1.5	.	-1	13	17	-0.2	-0.5
CCN1CCN(Cc2ccc(NC(=O)Nc3ccc(SC)cc3)cc2)CC1	15	19	9	-5.0	96*	.	.	.	.	0.8
Cc1cc(Cl)ccc1OCCCC(=O)NNC(=O)c1ccncc1	9	.	.	0.5	-1	-6	-3	-6	0.8	1.1
COC(=O)[C@@H]1CCCN1Cc1nc(Cc2ccccc2F)no1	6	9	92*	-1.0	-4	-16	12	11	3.8	0.0
COc1ccc(CN(CC2CCCO2)S(=O)(=O)c2ccc(-n3cnnn3)c(OC)c2)cc1 (configuration not stated)	-4	27	27	7.7	-2	2	-32	-38	-5.1	0.3
Cc1ccccc1CSc1nnc(C)n1N	0	4	?	-8.1	-2	1	10	5	-4.2	-0.7
O=C(Nc1nc2ccccc2[nH]1)c1ccccc1[N+](=O)[O-]	-16	1	-1	3.6	2	-1	13	13	-4.8	0.1
CC(N=c1ccccn1C(=O)Nc1ccc(Cl)cc1)c1ccco1 (configuration not stated)	.	1	-4	-0.4	-1	.	.	.	.	-0.7
Cc1cc(C(=O)Nc2ccc3c(c2)OCCO3)ccc1[N+](=O)[O-]	-2	-10	-4	2.2	-3	-8	3	11	8.0	-7.5
CCOC(=O)N1CCN(C(=O)COC(=O)c2ccc(O)cc2O)CC1	-1	-5	-3	0.3	.	1	-1	10	-1.9	0.8
Cc1ccc(C(=O)NCc2cccnc2)cc1S(=O)(=O)Nc1ccccc1	1	-6	-7	-1.5	-10	3	0	-1	3.5	-0.6
C=CCN1C(=O)C2(OCCCO2)c2ccccc21	-3	-11	2	-6.1	4	.	9	8	-3.6	0.0
COc1ccc(C(C)=O)cc1COc1cccnc1[N+](=O)[O-]	-23	2	6	-5.3	-10	-6	-1	2	0.6	0.6
CC(C)(C)c1ccc(Cn2c(=O)cnc3ccccc32)cc1	6	10	-18	17*	.	13	-50	-68	-17	-0.2
O=C(CCCN1C(=O)C(c2ccccc2)Oc2cccnc21)Nc1cccc(F)c1 (configuration not stated)	-4	5	-14	7.3	-12	1	-27*	-16*	-6.7*	1.2
O=C(O)CC1(c2ccc(F)cc2)C2CC3CC(C2)CC1C3 (configuration not stated)	15	-7	13	-1.3	-3	-5	-9	-18	0.5	-0.8
C/C=C/C1=CC(=O)C[C@H](c2ccc(OC)c(OC)c2)C1	3	.	.	-2.3	-3	-8	4	7	3.0	-0.5
CCOC(=O)N1CCC(NC(=O)c2cc3c(=O)[nH]c4ccccc4c3n2C)CC1	-5	19	26	2.2	-2	4	5	6	2.0	-0.1
CSc1nc2nc3c(cn2n1)C(=O)CC(c1ccccc1)C3 (configuration not stated)	-19	-4	43	2.3	-3	8	.	.	.	-0.7
O=C(NNC(=O)c1cc(-c2ccccc2)nn1-c1ccccc1)c1ccccc1	-7	5	-16	-1.5	-17	9	.	.	.	0.8
COc1ccccc1/C=N/NC(=O)CSc1ccc2ccccc2n1	-3	-8	9	-0.6	5	2	3	-15	2.6	-0.3
CC(=O)OC1COC(n2ccc3cc([N+](=O)[O-])ccc32)C(OC(C)=O)C1OC(C)=O (configuration not stated)	-3	-12	5	-0.4	-6	7	.	.	.	0.2
O=C(COc1ccc2c3c(c(=O)oc2c1)CCCC3)NCCCN1CCOCC1	1	3	3	-3.4	1	1	1	-7	0.0	0.4
CCC(C)N(C)C1CCN(C(=S)Nc2cccc(OC)c2)CC1 (configuration not stated)	2	8	-2	3.3	-3	-2	15	6	-1.9	-0.3
COCc1cc(N2CCN(c3ccccc3F)CC2)nc(-c2ccccc2)n1	-8	28	-1	3.3	-2	-4	4	7	1.2	0.3
